Source: PubChem
CBX7 AlphaScr – inhibitors of human CBX7 binding to H3K27me3 peptide; O95931; AlphaScreen His6-CBX7 / biotin-H3K27me3 peptide binding; stronger effect = lower value; normalised signal (fraction of DMSO) (no concentration beside the values); actives 1.1% (n = 66,000); in the data active = normalised signal below about 0.5;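 note: 100 nL library stock added to about 20 µL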
Target sequence (O95931 whole entry, looked up): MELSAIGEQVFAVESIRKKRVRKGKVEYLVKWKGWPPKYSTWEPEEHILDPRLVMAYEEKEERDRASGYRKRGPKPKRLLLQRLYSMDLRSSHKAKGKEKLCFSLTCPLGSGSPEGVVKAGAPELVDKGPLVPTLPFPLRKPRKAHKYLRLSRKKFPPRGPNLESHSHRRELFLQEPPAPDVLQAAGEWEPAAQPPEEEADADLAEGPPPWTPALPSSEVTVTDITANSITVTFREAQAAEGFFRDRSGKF
CBX7 AlphaScr z-score – second read-out of CBX7 AlphaScr, no call of its own (marks repeat the call); z-score; measured here: z-score of CBX7 signal; some inactives read as strong as hits; reference of the scale not given here;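 same signal on another scale; lower means less binding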
Starred values were filed as active, the others as inactive. Some of the compounds tested, so the mix of outcomes need not match the whole.

Order of values – CBX7 AlphaScr | CBX7 AlphaScr z-score
CN(C)CCNC(=O)c1cn(-c2ccc(F)cc2F)c(=O)c2ccccc12
→ 0.99 | -0.47
Nc1nonc1-c1noc(C2CCCC2)n1
→ 0.98 | -0.44
Cc1ccccc1Nc1c(-c2cc(Br)ccc2F)nc2ccc(Cl)cn12
→ 1.1 | 0.45
COc1ccccc1-c1nc2cc(NC(=O)c3ccc(F)cc3)ccc2o1
→ 1 | 0.4
CCOC(=O)c1oc2ccccc2c1NC(=O)c1ccc(C)c(C)c1
→ 1.1 | 2.5
Clc1ccc(-c2nnc(Nc3ccc4c(c3)OCO4)c3ccccc23)cc1
→ 0.82 | -2.1
COc1ccc(NC(=O)c2oc3ccc(S(=O)(=O)N(C)C4CCCCC4)cc3c2C)cc1Cl
→ 1 | 1.5
CN(C(=O)Cn1nc(Cc2ccncc2)c2ccccc2c1=O)c1ccc(Br)cc1
→ 1 | -0.03
NC(=O)c1c(C(F)(F)F)cc(-c2ccccc2)nc1NCCO
→ 1.1 | 1.1
CC1CCc2c(sc(NC(=O)c3cccnc3)c2C(=O)Nc2cccc(Cl)c2)C1 (stereo not drawn)
→ 0.88 | -1.3
CC(C)(C)c1csc(NC(=O)c2ccc(S(=O)(=O)N3CCOCC3)cc2)n1
→ 1 | -0.15
COCCN1Cc2cccc(C(=O)NCc3cccnc3)c2C1=O
→ 1.2 | 3.6
O=C(O)c1ccc(N2C(=O)C3C4c5ccccc5C(CO)(c5ccccc54)C3C2=O)cc1 (stereo not drawn)
→ 1.1 | 1.2
Cc1nc2c(C(=O)NC3CCCCC3)cnn2c(C)c1Cc1c(F)cccc1Cl
→ 0.98 | -0.56
O=C(NC1CCCC1)C(c1ccc(Cl)cc1)N1CCOCC1 (stereo not drawn)
→ 0.99 | -0.38
CN(C)S(=O)(=O)c1ccc(C(=O)Nc2nc3c(s2)CCc2ccccc2-3)cc1
→ 1 | 0.48
Cc1oc(-c2ccccc2F)nc1CS(=O)(=O)CC(=O)NCCN(C)C
→ 1 | 0.39
O=C(CSc1nccn1-c1ccc(F)cc1)Nc1ccc(Br)cc1
→ 0.89 | -0.88
O=C(Cn1nc(-c2ccccc2)c2cc(Cl)ccc21)NCc1ccc(F)cc1
→ 1 | 0.076
O=C(Cn1c(SCc2ccc(F)cc2)nc2ccncc21)N1CCCCCC1
→ 1.1 | 1.4
Cc1cccc(C)c1NC(=O)C(c1ccccc1)N1CC(=O)Nc2ccccc21 (stereo not drawn)
→ 1 | 0.14
O=C(Cn1nc(-c2ccccc2)ccc1=O)N1CCOCC1
→ 0.99 | -0.54
CCN(CC)S(=O)(=O)c1ccc2c(c1)N(CC(=O)NCCCOC)C(=O)CO2
→ 1.1 | 1.1
CC(C)CCNC(=O)Cc1c(C(=O)O)[nH]c2ccc(Cl)cc12
→ 1 | 1.1
Cc1cc(NS(=O)(=O)c2ccc(NC(=O)Nc3ccccc3)cc2)no1
→ 1 | 0.098
O=C(c1cc(-c2ccc3c(c2)OCO3)on1)N1CCN(c2ccccc2)CC1
→ 0.97 | -0.45
Cc1cc(=O)n2nc(N3CCC(C(=O)NCc4ccccc4C)CC3)sc2n1
→ 1.2 | 1.5
Cc1cc(=O)[nH]c2c1c(C)nn2C1CCOC(C)(C)C1 (stereo not drawn)
→ 1.2 | 1.4
CCN(CCNC(=O)c1cc(Sc2nnc(C)s2)nc2ccccc12)c1ccccc1
→ 1 | -0.072
Cc1ccc(NC(=O)c2cc(-c3cccs3)nc3ccccc23)cc1C
→ 1.1 | 1.3
COc1cc(NC(=O)CCc2c(C)nc3c(-c4ccc(F)cc4)c(C)nn3c2C)cc(OC)c1
→ 1.1 | 1.6
Cc1sc2nc(SCC(=O)N3CCCCC3)[nH]c(=O)c2c1C
→ 1.1 | 2
Cc1ccc(OCCN2CCN(c3ccc(C)c(C)c3)CC2)cc1
→ 0.4* | -12*
COc1ccc(CCNC(=O)c2cc(=O)[nH]c3ccc(S(=O)(=O)N4CCCC4)cc23)cc1OC
→ 0.97 | -0.3
O=C(c1ccccc1)N1CCN(c2ccc3nncn3n2)CC1
→ 1.2 | 2.8
CCOC(CCNC(=O)CCC(=O)Nc1ccc2nc(N3CCN(C)CC3)cc(C)c2c1)OCC
→ 1 | 0.46
COc1ccc(-c2cc(C(=O)Nc3c(C)nn(Cc4ccccc4C)c3C)no2)cc1
→ 1.1 | 0.77
CCOc1ccc(OCC)c(NC(=O)CCNS(=O)(=O)c2ccc3c(c2)CCC(=O)N3)c1
→ 1.1 | 1.4
CCCCc1nc(NCC2CCCO2)c(C#N)c2c1COC(C)(C)C2 (stereo not drawn)
→ 1.2 | 1.8
COc1ccc2c(c1)CCc1c(C(=O)Nc3cnn(Cc4ccc(Cl)cc4Cl)c3)noc1-2
→ 0.98 | -0.53
COc1cccc(C(=O)Nc2c(C(N)=O)oc3ccccc23)c1
→ 1 | 0.13
Cc1ccc(-c2noc(CCC(=O)Nc3ccc4c(c3)OCO4)n2)cc1
→ 0.92 | -0.11
CC(C)(C)C(=O)NCCCc1nc2ccccc2n1Cc1c(F)cccc1Cl
→ 1.1 | 1
Cc1ccc(OCC(=O)N(Cc2ccccc2)C2CCS(=O)(=O)C2)cc1C (stereo not drawn)
→ 1 | -0.13
Cc1ccc(S(=O)(=O)N2CCC(C(=O)NCc3ccc(F)cc3)CC2)cc1
→ 1.1 | 4.9
COc1ccc(Nc2nc(-c3ccc(Cl)cc3)cs2)cc1
→ 0.81 | -3
O=C(Nc1ccc(Cl)c(Cl)c1)c1cnn2cccnc12
→ 1.1 | 2.3
Cc1nnc(Sc2cc(C(=O)NCCC(C)C)c3ccccc3n2)s1
→ 1 | 0.3
Cc1cccc(C)c1OCC(=O)Nc1ccc(S(=O)(=O)Nc2ncccn2)cc1
→ 1 | 0.032
COc1cc(/C=C/c2ccc3cccc(OCc4ccccc4Cl)c3n2)cc(OC)c1OC
→ 1.3 | 3.4

Additional results.
Order of values – CBX7 AlphaScr | CBX7 AlphaScr z-score
COc1ccc(OC)c(NC(=O)C2CCN(S(=O)(=O)c3ccc(C)cc3)CC2)c1
→ 0.98 | -0.92
Cn1c(=O)c(=O)n(C)c2cc(S(=O)(=O)N3CCCC3C(=O)NC3CCCC3)ccc21 (stereo not drawn)
→ 1 | 0.14
Cn1c(CN2CCN(c3ccccn3)CC2)nc2ccccc21
→ 1 | 0.039
Cn1c(SCCCN2CCN(c3cccc(Cl)c3)CC2)nnc1-c1ccccc1
→ 0.74 | -1
CCOC(=O)c1c(NC(=O)c2c(OC)cccc2OC)sc2c1CCC(C)C2 (stereo not drawn)
→ 0.94 | -0.95
COc1ccc(NC2CC(=O)N(c3ccc(Cl)c(C(F)(F)F)c3)C2=O)cc1 (stereo not drawn)
→ 1.1 | 1.4
Cc1ccc(C)c(N2CC(c3nc4ccccc4n3CCCOc3ccccc3)CC2=O)c1 (stereo not drawn)
→ 1 | 0.24
CCOCCCNC(=O)CN1C(=O)C(CC)Oc2ccc(C)cc21 (stereo not drawn)
→ 1.1 | 1.5
Cn1c2ccccc2c2c(C(=O)N3CCC(Cc4ccccc4)CC3)cn(C3CCCC3)c(=O)c21
→ 0.81 | -0.19
Cc1ccc(-n2cc(-c3ccccc3)c3c(NCc4cccnc4)ncnc32)cc1
→ 0.9 | -2.6

Carrying on.
| smiles | CBX7 AlphaScr | CBX7 AlphaScr z-score |
| --- | --- | --- |
| Cc1ccc(Nc2nc3nonc3n3c(CC(N)=O)nnc23)cc1 | 1 | 0.36 |
| Cc1ncc(CO)c2cc(C(=O)Nc3ccccc3F)c(=O)oc12 | 1 | 0.86 |
| Cc1ccc(-c2nc3ncccc3o2)cc1NC(=O)Cc1ccccc1 | 1 | 0.22 |
| Cc1ccc(CSc2nc3ccncc3n2Cc2ccccc2F)cc1 | 0.94 | -0.92 |
| CCc1ccc2c(c1)c(=O)c(S(=O)(=O)c1ccccc1)cn2CC(=O)Nc1ccccc1OC | 0.95 | -0.84 |
| O=C(CCCN1C(=O)c2cccnc2C1=O)Nc1ccc(F)cc1Cl | 0.93 | -0.14 |
| CCOc1ccccc1-n1c(C)nc2cc(C(=O)O)ccc21 | 1 | 0.4 |
| CCc1ccc(S(=O)(=O)Nc2ccc(-c3cn4cccc(C)c4n3)cc2)cc1 | 0.93 | -1.1 |
| CCOc1cc2c(cc1OCC)C(c1ccc(C(=O)O)cc1)NCC2 (stereo not drawn) | 0.95 | -0.7 |
| O=C(Nc1nc(-c2ccc(Cl)c(Cl)c2)cs1)c1c(F)cccc1F | 1.1 | 1.4 |
| COc1cc2[nH]c(=O)n(CCCCCC(=O)N3CCN(c4ccc(F)cc4)CC3)c(=O)c2cc1OC | 1 | -0.085 |
| COc1ccc(-c2nnc(Nc3ccc4c(c3)ncn4-c3ccccc3OC)c3ccccc23)cc1 | 0.66 | -6.5 |
| Cn1c(SCC(=O)Nc2cccc(F)c2)nnc1-c1cccnc1 | 1 | 0.5 |
| Cc1c(C)n(CC(O)CN2CCCCC2C)c2ccccc12 (stereo not drawn) | 1.2 | 3.3 |
| Cc1oc(-c2ccc(Cl)cc2)nc1C(=O)NCCCN1CCC(C)CC1 | 1.2 | 0.41 |
| Cc1ccc(-n2cc(-c3ccc4c(c3)OCO4)nc2SCC(=O)Nc2ccccc2)cc1 | 0.81 | -1.9 |
| CCOc1ccc(-n2c(-c3ccccc3)nc3c(cnn3-c3ccccc3)c2=O)cc1 | 1 | 0.42 |
| CC(C)C(=O)N1c2ccccc2NC2=C(C(=O)CCC2)C1c1ccccc1 (stereo not drawn) | 1.1 | 1.5 |
| COCCn1cc(C(=O)N2CCN(C)CC2)c2c3ccccc3n(C)c2c1=O | 1.1 | 2.3 |
| Cn1nc(Oc2nc(N3CCOCC3)cc(N3CCOCC3)n2)ccc1=O | 1 | 0.15 |
| O=C(c1ccc2c(c1)C(=O)N(c1ccccn1)C2=O)N1CCc2ccccc2C1 | 0.97 | -0.68 |
| Cc1sc2ncn(CC(=O)NCC(=O)Nc3cccc(C(F)(F)F)c3)c(=O)c2c1C | 1 | 0.36 |
| CC(=O)N1CCc2cc(S(=O)(=O)NC(Cc3ccccc3)C(=O)Nc3cccc(Cl)c3)ccc21 (stereo not drawn) | 1 | 0.26 |
| COC(=O)c1c(NC(=O)CCCOc2ccc(C)cc2)sc2c1CCCC2 | 1.2 | 2.4 |
| Cc1c(C(=O)Nc2nc3ccccc3s2)sc2nc(-c3ccccc3)cn12 | 1 | 0.59 |
| Cc1ccc(-c2nc(CS(=O)(=O)CC(=O)Nc3ccc(Cl)cc3)c(C)o2)cc1 | 0.99 | -0.031 |
| CCOc1ccccc1OCC(=O)Nc1ccc(S(=O)(=O)Nc2ncccn2)cc1 | 1 | 0.62 |
| CCOc1ccc(C(=O)NCCc2cc3c(C)ccc(C)c3[nH]c2=O)cc1 | 1.1 | 0.15 |
| COc1ccccc1CNC(=O)c1ccc(CNc2c(N3CCCCC3)c(=O)c2=O)cc1 | 0.95 | -0.11 |
| CC1CC(C)CN(C(=O)c2ccc3c(c2)N(Cc2ccc(F)cc2)C(=O)c2ccccc2S3=O)C1 (stereo not drawn) | 0.98 | -0.26 |
| Brc1ccc(SCCc2nc3ccccc3o2)cc1 | 1.1 | 1.7 |
| COc1ccc(OC)c(CNc2sc3c(c2C(=O)Nc2ccccc2OC)CCCC3)c1 | 0.56 | -6.1 |
| O=c1c(-c2nc3ccccc3s2)coc2cc(O)ccc12 | 0.77 | -0.9 |
| CCCOc1ccc(N2C(=O)CC(NCCc3ccc(F)cc3)C2=O)cc1 (stereo not drawn) | 1.1 | 0.65 |
| CCOC(=O)c1cnc2c(OC)cccc2c1Nc1ccc(C(C)C)cc1 | 0.82 | -5.4 |
| COCCNC(=O)CS(=O)(=O)Cc1nc(-c2ccc(OC)cc2)oc1C | 1 | 0.19 |
| O=C1CCc2cc(S(=O)(=O)NC(Cc3ccccc3)C(=O)NCc3ccccc3Cl)ccc2N1 (stereo not drawn) | 1.2 | 4.2 |
| CCOc1ccc(CNc2ccc3c(c2)ncn3-c2ccc(C)cc2)cc1 | 0.79 | -0.99 |
| Cc1[nH]c2ccccc2c1CCNC(=O)c1cccs1 | 1.1 | 1.3 |
| CCCCc1ccc(-c2nc(Nc3ccc(C)cc3Br)c3ccccc3n2)cc1 | 1.4 | 8.5 |
| Cc1nn(CC(O)Cn2c(C)c(C)c3ccccc32)c(C)c1Br (stereo not drawn) | 0.44* | -3.7* |
| Cc1cccc(OCCCC(=O)Nc2nc3ccccc3s2)c1 | 1 | 0.14 |
| O=C(NCc1cccs1)c1cc(-c2cccc(O)c2)on1 | 1 | 0.64 |
| Cc1ccc(NC(=O)c2cc(-c3ccc(Cl)cc3)on2)cc1C | 1.1 | 0.13 |
| CC(C)CCNC(=O)CC1Oc2ccccc2NC1=O (stereo not drawn) | 0.95 | -0.98 |
| CC(=O)N1CCc2cc(S(=O)(=O)CCC(=O)Nc3nc(C)cs3)ccc21 | 0.99 | -0.19 |
| CCN1CCN(c2cc(C)c3cc(NC(=O)CCC(=O)N4CCCC(C)C4)ccc3n2)CC1 (stereo not drawn) | 1.2 | 3.1 |
| CCCCNC(=O)C1CCC(=O)N1Cc1ccc(C)cc1 (stereo not drawn) | 1 | 1.8 |
| COc1ccc(-n2nc3c(c2NC(=O)c2cc(Cl)ccc2Cl)CSC3)cc1 | 0.98 | -0.56 |
| N=c1n(Cc2ccccc2)c2ccccc2n1CC(O)COc1ccccc1 (stereo not drawn) | 0.94 | -2.7 |
| Cc1ccccc1CN1C(=O)c2ccccc2Sc2ccc(C(=O)NCCc3ccccc3)cc21 | 0.99 | -0.4 |
